LANA-H2B inh: blocks KSHV LANA binding to histone H2A/H2B | 0.6% of 320,000 active | cell-free LANA-H2A/H2B peptide, fluorescence polarization | inhibition, % (test concentration not listed); in the data active = inhibition mostly above about 10%, no sharp cut-off; inactive = mostly below about 6.7%;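 also: stock transfer was 7.5 nL into about 10 µL; 0% = median of vehicle wells and 100% = median of positive control wells; one replicate is shown; the record names a cut of 25% in any replicate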
Calb FLC: affects C. albicans growth with fluconazole | C. albicans CaCi-2 (fluconazole-resistant clinical isolate) + fluconazole, Alamar Blue growth, 48 h | growth inhibition, % (test concentration not listed) | 0.57% of 300,000 active | AID 1979;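 active = most replicates above 75%; inconclusive = exactly half above 75%; inactive = most below 75%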;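 also: all wells also contain fluconazole at 8 µg/ml as a sub-toxic cotreatment; 0% = median of DMSO wells and 100% = median of geldanamycin control wells; wells of about 8 µL received 7.5 nL stock; the first replicate is given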
A1 inh: inhibitors of the anti-apoptotic protein A1, read as caspase activation; 0.066% of 330,000 active; caspase activation, % (no concentration beside the values); MEF A1-2A-BIM cells, Caspase-Glo 3/7 luminescence, 3 h; percent of clofoctol response, vehicle zero;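 active = over half of replicate activation scores above 10%, or exactly half above 10 with the replicate mean above 10; inconclusive = replicate mean below 10 yet half the replicates above 10; inactive = over half of replicates below 10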;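 also: wells of about 30 µL received 50 nL stock; many hits fall short of the cut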
Beta cell apopt: beta cell apoptosis inhibition; 0.8% of 300,000 active; INS-1E cytokine-induced death, ATP luminescence, 48 h; percent of positive-control rescue, neutral wells zero; protection from apoptosis, % (concentration not given with the values);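 active = all replicates at 75% or more, or half of them and the mean; inconclusive = half reach 75% but not the mean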;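 also: 0% = cytokine-treated negative control wells and 100% = positive control rescue; higher means more ATP so stronger rescue from cytokine killing; wells of about 40 µL received 100 nL stock; the first replicate is given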
Vif A3G: HIV-1 Vif–A3G interaction blockers – biochemical, TR-FRET, GST-Vif 1-94, biotin-A3G peptide, dose response retest, primary screen (AID 1117319) | TR-FRET GST-Vif / biotin-A3G peptide binding; higher % means a stronger effect; test concentration not given here; strong numbers were not always called active | inhibition, %, or IC50 in µM where a hit was titrated | 0.57% of 260,000 active;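 active = above the screen mean plus three standard deviations and confirmed in dose response; inconclusive = results disagree or hit not tested in dose response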;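 also: Vif residues 1-94 fused to GST binding biotinylated APOBEC3G peptide 110-148; 0% = full assay without inhibitor and 100% = GST in place of GST-Vif; retest series ran down from 100 µM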
MLL AF4-AF9 inh: blocks AF4 peptide binding to human AF9; P42568; AlphaScreen, biotin-AF4 peptide binding to FLAG-AF9; inhibition, % at 10 µM; AID 651704; 0.47% of 350,000 active;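 active = every replicate reaching a set inhibition limit, whatever the replicate mean, cut at about 25% in these data; inconclusive = mean inhibition reaches that limit but some replicates miss it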;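 also: 0% = plate neutral control median and 100% = total signal loss; the record names both 10 and 1 µM as test concentration; the first replicate is given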
Target sequence (P42568 whole entry, looked up): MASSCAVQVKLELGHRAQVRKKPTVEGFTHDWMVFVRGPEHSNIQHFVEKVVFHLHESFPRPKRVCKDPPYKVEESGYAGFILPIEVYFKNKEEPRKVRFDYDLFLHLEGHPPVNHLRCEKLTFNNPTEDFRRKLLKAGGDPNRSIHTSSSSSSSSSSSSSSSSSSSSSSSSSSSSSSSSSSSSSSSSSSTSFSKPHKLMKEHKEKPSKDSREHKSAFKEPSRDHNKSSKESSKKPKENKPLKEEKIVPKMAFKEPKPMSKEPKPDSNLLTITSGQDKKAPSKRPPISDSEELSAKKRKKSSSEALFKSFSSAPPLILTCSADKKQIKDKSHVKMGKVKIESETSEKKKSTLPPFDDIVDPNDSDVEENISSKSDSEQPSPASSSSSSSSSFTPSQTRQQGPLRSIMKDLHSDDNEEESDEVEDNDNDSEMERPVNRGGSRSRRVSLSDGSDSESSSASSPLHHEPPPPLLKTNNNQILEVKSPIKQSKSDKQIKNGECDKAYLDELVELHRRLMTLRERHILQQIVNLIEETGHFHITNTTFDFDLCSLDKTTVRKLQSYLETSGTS
RanGTP-Impb inh: inhibitors of RanGTP-importin-beta interaction, primary screen, biochemical, FRET, CFP-Ran, YFP-importin-beta, homogeneous; inhibition, % (concentration not given with the values); 1.1% of 300,000 active; AID 2216; cell-free CFP-Ran/YFP-importin-beta FRET ratio;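 active = most replicates above 15%; inconclusive = exactly half above 15%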;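 also: 0% = DMSO wells and 100% = Ran loaded with GDP instead of GTP; wells of about 40 µL received 100 nL stock; the first replicate is given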
T cruzi inh: T. cruzi replication inhibition; T. cruzi beta-gal in NIH3T3, luminescence, 90 h; inhibition, % (concentration not given with the values); 1.4% of 300,000 active; AID 1885;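 active = mean inhibition across valid replicates above about 55%, limit read from the data; inconclusive = mean below that limit but half or more replicates reach it; inactive = mean below it, under half of replicates reach it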;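 also: signal also drops with host cell toxicity which is not excluded here; 0% = plate median of DMSO wells and 100% = zero luminescence signal; higher percent means less beta-gal luminescence so fewer parasites; stock transfer was 50 nL into about 50 µL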
Numbers without * were called inactive; ? = inconclusive; nt = not tested or not shown; & = joins results of further samples.

SMILES	LANA-H2B inh	Calb FLC	A1 inh	Beta cell apopt	Vif A3G	MLL AF4-AF9 inh	RanGTP-Impb inh	T cruzi inh
CCC(C(=O)O/N=C(\N)c1ccc(C)cc1)c1ccccc1 (stereo not given)	-45	4	-0.4	-5	-1%	nt	-3.3	0
COC(=O)c1ccc(CC(=O)c2ccc(O)cc2O)o1	11	3	-1.9	-8	21%	-2.4	4.0	-6
O=C(CN1C(=O)NC(c2ccccc2)(c2ccccc2)C1=O)N1CCN(c2ccccc2F)CC1	-3.2	nt	-0.6	-4	nt	6.3	nt	nt
COc1ccc(C(=O)OC(C)C(=O)NC2CCCC2)cc1S(=O)(=O)N1CCOCC1 (stereo not given)	-4.3	nt	0.3	-4	5%	0.2	nt	nt
CCc1c(C)nc2c(-c3ccccc3)c(C)nn2c1Nc1ccc(NC(C)=O)cc1	-1.4	15	0.4	7	nt	-1.1	5.0	55*
Cc1ccc(C)c(NC(=O)COC(=O)c2cc3ccccc3oc2=O)c1	-2.6	nt	3.6	0	-11%	0.7	nt	nt
COc1ccccc1NC(NC(=O)c1ccccn1)C(Cl)(Cl)Cl (stereo not given)	0.5	-3	0.8	-1	nt	nt	-0.5	-1
COc1ccc(NC(=S)/N=C(\N)Nc2nc(C)c3ccc(C)cc3n2)cc1	-0.5	-28	-0.4	-6	-7%	-0.4	1.1	17
COc1ccc(C2=NS(=O)(=O)N(C)C(C(=O)NCc3cccs3)=C2)cc1OC	1.7	-5	1.1	-3	nt	7.4	2.3	6
CCC(=O)N(Cc1cc2ccccc2[nH]c1=O)C(C)C	3.8	5	-0.5	2	-2%	nt	0.0	5
O=C1C2C3C=CC(C3)C2C(=O)N1c1ccc2ccccc2n1 (stereo not given)	-1.0	-7	0.3	-2	2%	nt	0.2	-12
CSc1nsc2nc(=O)c(/C=C3\C(C)=Nc4ccc(C)cc43)c(N)n12	1.7	61	-0.4	14	nt	-5.6	-0.9	-11
COc1ccc(-c2cc(=O)oc3cc(OC(C)C(=O)O)ccc23)cc1 (stereo not given)	3.3	22	-0.4	4	5%	-2.3	-2.8	-14
O=C(c1ccco1)N1CCN(c2cc(C(F)(F)F)nc3ncnn23)CC1	2.5	5	0.1	-3	-1%	nt	-2.2	-13
CCCc1nnc(NC(=O)CCCC(=O)O)s1	-1.3	-9	0.2	1	18%	nt	3.1	-7
O=C(O)C(O)Cc1c[nH]c2ccccc12 (stereo not given)	-1.7	nt	0.1	-1	-2%	-1.4	nt	nt
CCN(CC)c1ccc(C(=O)OCC(=O)NCC2CCCO2)cc1 (stereo not given)	-0.7	2	1.0	5	3%	nt	-0.8	9
COC(=O)/C=C1\N/C(=N\c2nc(C)cc(C)n2)N(c2ccc(C)cc2)C1=O	-5.0	7	-0.6	-10	-4%	0.7	?	5
CC1(C)Cc2[nH]c3ccccc3c2C(C)(C)N1	-5.8	0	0.4	-1	-8%	-1.5	-2.0	-3
COc1ccccc1CNC(=O)CCNC(=O)C1CCN(S(=O)(=O)c2ccccc2)CC1	3.0	nt	0.8	1	-2%	0.7	?	6
COc1cccc(SCc2noc(C(=O)NCC3CC3)c2C(=O)NCC2CC2)c1	1.0	-10	1.1	-1	nt	nt	-6.1	-3
CCOc1ccc(C(=O)NCc2ccco2)cc1Cl	2.7	1	-0.4	nt	nt	2.1	0.0	-15
CCCc1nc2c(s1)CCc1onc(-c3cccc([N+](=O)[O-])c3)c1-2	-0.4	-18	-0.9	-6	nt	-0.3	1.0	2
Cc1ccnc(SCCn2c(N3CCN(Cc4ccccc4)CC3)nc3c2c(=O)[nH]c(=O)n3C)n1	-2.4	0	-0.2	1	7%	-7.9	-4.7	9
Cc1ccc(N(CC(=O)NCc2ccco2)C(=O)CNS(=O)(=O)c2ccccc2)c(C)c1	6.2	3	2.2	3	nt	2.9	1.3	4
Cc1ccc(-c2c3c(=O)n(C)c(=O)n(C)c3cn2Cc2ccccn2)cc1	0.9	-3	?	1	0%	nt	-2.9	-2
CCOc1nc(NCCc2ccc(OC)c(OC)c2)nc(N2CCN(c3ccc(OC)cc3)CC2)n1	-4.6	-8	-1.1	1	-4%	nt	?	10
Cc1ccc(OCC(=O)Nc2ccc(N3CCN(C(=O)c4ccco4)CC3)cc2)c(C)c1	1.0	11	1.0	nt	nt	1.0	2.3	10
Cc1ccc(C(=O)NCC(=O)OCC(=O)Nc2ccc(Cl)cn2)cc1	7.6	nt	0.5	-2	-13%	-1.9	nt	nt
COCCCNC1CS(=O)(=O)CC1O (stereo not given)	-5.8	0	1.5	-2	14%	-46	3.5	3
Cc1cccc(N(CC(N)=O)S(C)(=O)=O)c1C	-2.6	-6	-0.3	-4	-2%	nt	-3.7	-5
C=CCNC(=O)c1cc(-c2ccccc2O)on1	1.7	5	-2.2	2	10%	-4.9	?	1
c1cc(CNc2ccc3c(c2)OCCO3)ccn1	1.3	3	-0.4	4	5%	nt	1.9	-4
CC(=O)C(Cc1ccccc1)(Cc1ccccc1)C(C)=O	-1.7	0	0.0	nt	nt	5.0	-0.5	-12
CN(C)/C=N/NC(=O)c1ccccc1Cl	1.4	-6	1.2	-1	69%	1.1	1.0	1
COc1ccc(NC(=O)c2ccc(S(=O)(=O)C(F)F)cc2)c(OC)c1	4.6	13	0.8	-3	-8%	1.6	-2.8	-2
Cc1ccc(NC(=O)Nc2cccnc2)cc1Cl	-4.4	-3	-1.6	-1	-6%	4.6	0.7	-4
CCN(c1ccccc1)S(=O)(=O)c1ccc(NC(=S)NC(=O)c2cccs2)cc1	4.4	1	-0.1	5	-4%	nt	7.2	15
CC1C[N+](=C2C=C(N3CCOCC3)CC(C)(C)C2)CC(C)O1 (stereo not given)	4.1	-3	0.2	-4	nt	-21	0.9	-1
COc1cccc(NC(=O)CN(C)C(=O)c2ccc(-n3cncn3)c([N+](=O)[O-])c2)c1	-21	nt	0.7	-6	0%	1.7	nt	nt
Cc1nc(NC(=O)c2ccncc2)sc1C(=O)N(C)C	0.9	-1	0.9	-5	nt	-0.7	2.0	-7
CS(=O)(=O)N1CCN(c2ccccc2NC(=O)c2ccc3ccccc3c2)CC1	-0.1	-18	1.0	5	20%	nt	0.8	0
O=C(NCc1ccccn1)C1CCN(Cc2cnn(-c3ccccc3)c2-n2cccc2)CC1	-0.1	-11	0.3	-2	-1%	nt	0.5	18
CC1CCc2c(sc(NC(=O)CN3CCN(C(=O)c4ccco4)CC3)c2C#N)C1 (stereo not given)	-1.8	-25	0.7	9	-3%	nt	-2.5	-1
Cc1ccc(C)c(S(=O)(=O)NC(C)C(=O)Nc2ccc(-c3nc4ccccc4s3)cc2)c1 (stereo not given)	1.8	8	-1.1	5	-10%	nt	-0.9	-14
CCc1n[nH]c(=O)n1Cn1c(CC)n[nH]c1=O	6.6	-2	-1.7	-1	-1%	nt	6.5	-6
Nc1cccc2c1C(=O)N(C(=O)c1ccc(S(=O)(=O)N3CCCCCC3)cc1)C2=O	-1.4	-2	1.4	-7	6%&-8%	nt	11	-12
Cc1ccc(NC(=S)NC(=O)C2CCCC2)cc1C	3.1	0	0.0	0	nt	-0.3	0.7	-15
CC(C)(C)N=C1NN=C(c2cc3ccccc3o2)CS1	-452	47	-1.1	-2	nt	nt	2.4	12
COc1ccc(CNS(=O)(=O)c2ccc(-n3cnnn3)c(C)c2)cc1	-3.8	15	-0.5	7	nt	-2.6	0.3	-11
CSc1ccc(/C=C/C(=O)OCC(=O)N2CCCCCC2)cc1	-3.3	nt	1.0	-5	-8%	0.8	nt	nt
C=CCOn1c(=O)c(-c2ccccc2)[n+]([O-])c2ccccc21	-2.4	1	0.0	-11	6%	-7.3	0.3	-27
Cc1ccc(NC(=O)C2CCN(C(=O)c3ccccc3C)CC2)cc1	-7.0	22	0.8	1	1%	-3.4	-2.4	0
O=C(Oc1ccc(C(=S)N2CCOCC2)cc1)c1ccccc1F	0.5	-2	-0.1	nt	-8%	2.7	-7.4	-13
O=C(Nc1ccc(Cl)cc1F)c1ccc(-n2cncn2)cc1	-0.5	nt	-5.5	1	-1%	-0.5	nt	nt
O=C(CSc1ncccn1)NNC(=O)c1ccccc1	8.3	-16	-1.2	5	nt	-11	1.0	-10
CCOC(=O)c1ccc(Nc2c(OCC)c(=O)c2=O)cc1	-3.3	-18	-0.5	-5	2%	2.3	-2.8	-19
Cc1ccc(-c2nn3c(C)nnc3s2)cc1NC(=O)c1ccco1	-3.6	-1	0.0	0	-7%	1.3	-4.7	-14
Cc1ccc(S(=O)(=O)NC2CCCCCC2)cc1	3.4	nt	-0.1	-2	-3%	4.5	nt	nt
Cc1ccc(C2OC(=O)C=C2c2ccccc2)cc1 (stereo not given)	2.6	11	-0.8	6	nt	-2.3	-1.4	-13
Next section.
SMILES	LANA-H2B inh	Calb FLC	A1 inh	Beta cell apopt	Vif A3G	MLL AF4-AF9 inh	RanGTP-Impb inh	T cruzi inh
Cc1ccc(-n2c(Cc3ccccc3)n[nH]c2=S)cc1	2.6	0	-0.4	-4	4%	nt	1.2	10
CCOc1ccc(CCNC(=O)c2cccc(S(=O)(=O)N3CC(C)OC(C)C3)c2)cc1OCC (stereo not given)	2.4	-2	-0.5	-5	8%	-6.5	-0.9	6
Cc1cc(C)c(NC(=O)c2c[nH]c(=S)n2-c2ccc(F)cc2)c(C)c1	-5.6	1	0.3	-4	-3%	-12	-0.2	-12
CCn1cc(C(=O)N2CCN(c3ccccc3F)CC2)c(=O)c2ccc(C)nc21	0.3	4	-0.3	nt	-10%	-8.9	0.2	4
O=C(Nc1cccc(S(=O)(=O)c2cccc(NC(=O)C3CC3)c2)c1)C1CC1	-3.3	-3	0.7	24	-2%	-24	-0.9	-4
Cc1ccc(-n2c(=O)cc(N3CCN(Cc4ccccc4)CC3)[nH]c2=O)cc1	nt	7	nt	nt	7%	-5.0	?	-13
COc1ccc2c(c1OC)c(=O)n1c3ccc(OC(C)C(=O)NCCCN4CCOCC4)cc3c3ccnc2c31 (stereo not given)	0.5	-4	0.6	nt	nt	nt	5.2	13
Cc1cc(C)nc(NC(=O)c2ccc(Cl)c([N+](=O)[O-])c2)n1	-2.0	3	-0.8	-2	-6%	-4.2	7.5	-11
